BasE inh: inhibitors of Acinetobacter baumannii siderophore enzyme BasE. purified BasE, fluorescence polarization binding displacement. inhibition, % (concentration not given with the values). 84,000 compounds, 0.1% hits;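 active means both replicates above 25% with normal brightness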;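 further: 0% = negative plate control signal and 100% = positive plate control signal; stock transfer was 100 nL into about 30 µL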
KSHV LANA nucl: inhibitors of KSHV LANA binding to nucleosomes; FITC-LANA1-23 / chicken nucleosome fluorescence polarization; active compounds read low; z-score (no concentration beside the values); 51,000 compounds, 0.3% hits;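 active means both repeat wells score below -2 in polarization z-score versus plate sample wells, excluding overly bright wells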;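 further: 100 nL library stock added to about 30 µL; numbers are from one replicate; some results filed as inactive read as strong as hits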
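Assay system: FITC-LANA peptide and chicken nucleosomes; input: 240 nM purified chicken nucleosomes (480 nM peptide binding sites), final; also added: 50 nM FITC-LANA1-23 probe; medium: TEN-BT buffer, pH 7.5; doses: pin-transferred compound, 100 nL; times: 10–45 min, room temperature; technique: fluorescence polarization; replication: duplicates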
* hit, by the source's call; / = not tested or not shown; & = joins results of further samples. The list is partial. The share of hits here may be higher or lower than overall.

SMILES | BasE inh | KSHV LANA nucl
O=C(CNC(=O)c1ccccc1)ON1C(=O)CCC1=O | -0.4 | /
CN(C)c1nc(Cl)nc(NCCOc2ccccc2)n1 | 3.5 | 0.2
CCOC(=O)c1c(C)oc2c1c(/C=N/N1CCOCC1)c(O)c1ccccc12 | -2.7 | 0.29
CC1CCc2cc(F)ccc2N1C(=O)c1ccc2nccnc2c1 (stereo unspecified) | 3.4 | 0.48
CN(C1CCCCC1)S(=O)(=O)c1ccc2c(c1)c(=O)c(C(=O)N1CCCCC1)cn2C | -4.7 | 0.26
COc1cccc(Cl)c1NC(=O)N1CCN(c2ccnc3cc(Cl)ccc23)CC1 | 1.0 | -0.56
CN(C)/N=C/c1cc(Br)c(O)c(Br)c1 | 0.3 | /
CCCCNC(=O)Nc1ccc(OC)c(OC)c1 | 1.8 | /
O=S(=O)(/N=C(\Oc1ccccc1)c1ccccc1)c1ccc(Br)cc1 | 1.8 | /
COc1ccccc1NC(=O)C(NC(=O)c1ccccc1NC(=O)c1ccccc1)C(C)C (stereo unspecified) | 2.2 | /
OCCCc1n[nH]c(=S)n1-c1ccccc1 | 0.2 | -0.44
CCn1ncc(NC(=S)Nc2ccc3c(c2)OCO3)c1C(N)=O | 0.5 | 0.78
N#C/C(C(=O)c1c[nH]c2ccccc12)=C1\SCC(=O)N1c1ccccc1 | -1.7 | 0.11
N/C(=N/c1nc(-c2ccccc2)cc(=O)[nH]1)Nc1ccccc1 | 0.2 | 0.27
COc1ccc(OC)c(Nc2nc3nonc3nc2N2CCC(C)CC2)c1 | 3.8 | /
CS(=O)(=O)c1ccc(NC(=O)CCCc2nc3ccccc3c(=O)[nH]2)cc1 | -0.1 | /
Cc1cc(-c2ccc(C(C)C)c(S(=O)(=O)NC3CCCC3)c2)on1 | -0.2 | /
Cc1csc(NC(=O)C(Cc2ccccc2)NS(=O)(=O)c2ccc(Br)s2)n1 (stereo unspecified) | -0.5 | -0.0055
COC(=O)CSc1n[nH]c(CNc2cccc(C)c2)n1 | 1.4 | 0.046
C[C@@H](C(=O)Nc1nc2ccccc2[nH]1)N1C(=O)C2CC=CCC2C1=O (stereo partly specified) | -1.2 | /
CN(CCOc1ccc(F)cc1)Cc1ccccc1 | -0.6 | /
CC(C)CN(CC(C)C)c1nnc(NC(=O)Nc2ccccc2)s1 | 0.9 | -0.95
Cn1cnnc1SCNC(=O)c1cc2ccccc2o1 | 0.9 | /
Cc1noc(C)c1-c1nnc(-c2ccc(OC(F)(F)F)cc2)o1 | 2.4 | -1.3
O=C(OCc1csc(Nc2ccccc2)n1)c1cccc(S(=O)(=O)N2CCOCC2)c1 | 0.9 | /

(listing goes on)
SMILES | BasE inh | KSHV LANA nucl
O=C(CSc1nnnn1C1CCCC1)c1ccc2c(c1)OCCO2 | 0.0 | -0.32
Cc1ccc(S(=O)(=O)/N=C(\N)Nc2nc3ccccc3s2)cc1 | -0.3 | /
Cc1cc(C)nc(SCC(=O)N2CCCC2c2cccs2)n1 (stereo unspecified) | 0.7 | /
O=C(O)CCC(=O)c1ccco1 | 0.9 | -1.2
CCCc1c(C(=O)OCC)[nH]c2c1C(=O)CCC2 | -1.1 | 0.23
Cc1cc(C(=O)COC(=O)CCN2C(=O)C3CC=CCC3C2=O)c(C)n1C (stereo unspecified) | -2.0 | /
CS(=O)(=NC(=O)NC(=O)c1ccc(Cl)cc1)c1ccc(C(F)(F)F)cn1 (stereo unspecified) | -1.2 | /
CC1CCCCN1S(=O)(=O)c1ccc(NC(=O)C2COc3ccccc3O2)cc1 (stereo unspecified) | 5.2 | -0.25
CCCC(NC1CCS(=O)(=O)C1)C(=O)O (stereo unspecified) | 0.9 | /
Cc1cc(C)c2c(=O)c3ccccc3[nH]c2n1 | -2.3 | 0.26
CCN=C(Nc1cc(-c2ccccc2OC)[nH]n1)SC | 2.0 | -0.42
c1ccc(-c2nc(-c3cccnc3)n[nH]2)cc1 | 4.2 | /
CCOC(=O)CN1N=NC2C(=O)N(c3ccccc3)C(=O)C21 (stereo unspecified) | 0.0 | -1.5
O=C(c1ccc(Cl)cc1Cl)N1CCCC1 | 2.5 | 0.24
COc1ccc(N2CCN(C(=O)c3cn(C)c(=O)c4c3c3ccccc3n4C)CC2)cc1 | 0.3 | -0.37
O=C(OCc1cc(Cl)cc2c1OCOC2)c1ccc(CN2CCCC2=O)cc1 | 0.9 | /
O=C(Nc1ccccc1)C1CCCN1C(=O)NCc1ccccc1 (stereo unspecified) | 1.0 | 0.32
O=c1cc(CSc2nc3ccccc3c(=O)[nH]2)c2ccc(O)cc2o1 | 8.1 | /
CCSc1nnc(NC(=O)C2CCCCC2C(=O)OCC(F)(F)C(F)F)s1 (stereo unspecified) | 0.7 | -1.1
CC1Sc2ccc(S(=O)(=O)CCC(=O)N3CCCCC3)cc2NC1=O (stereo unspecified) | 0.3 | -1.7
C[C@]12C=CC(=O)C=C1CCC1C3C[C@@H](O)[C@](O)(C(=O)CO)[C@@]3(C)C[C@H](O)[C@@]12F (stereo partly specified) | -1.1 | 0.52&-0.014
Cc1cccc2cc(CN(C(=O)c3ccncc3)C3CCCC3)c3nnnn3c12 | 0.6 | -0.33
COc1ccc(-n2cc(C(=O)Nc3cc(C)ccc3OC)nn2)cc1 | -0.4 | 3.6
CCCN1CCN(C(=O)C(NC(=O)c2ccco2)C(C)C)CC1 (stereo unspecified) | 1.4 | /
C=CCNC(=O)c1c(O)c2cccc3c2n(c1=O)CCC3 | -0.9 | 0.35

4 of these compounds, set out differently:
The line under a structure holds: BasE inh | KSHV LANA nucl
> CCOC(=O)c1c(C)oc2c1c(/C=N/N1CCOCC1)c(O)c1ccccc12
  -2.7 | 0.29
> O=C(OCc1cc(Cl)cc2c1OCOC2)c1ccc(CN2CCCC2=O)cc1
  0.9 | /
> CCCC(NC1CCS(=O)(=O)C1)C(=O)O (stereo unspecified)
  0.9 | /
> CCCN1CCN(C(=O)C(NC(=O)c2ccco2)C(C)C)CC1 (stereo unspecified)
  1.4 | /

The listing continues.
SMILES | BasE inh | KSHV LANA nucl
COc1ccc(-n2nnnc2SCC(=O)N2CC(=O)Nc3ccccc32)cc1 | -4.1 | /
Cc1ccc(Cn2nc(C)ccc2=O)cc1 | -1.5 | 0.18
COc1ccc(S(=O)(=O)N(C)CC(N)=O)cc1 | -2.7 | 1.3
CC1Cc2ccccc2N1C(=O)C1CCN(S(=O)(=O)Cc2ccccc2)CC1 (stereo unspecified) | -0.7 | 1.1
CC(=O)OC1OCCOC1NC(=S)Nc1ccc(C)cc1 (stereo unspecified) | -4.1 | 1.8
COc1ccc(CC(=O)N2c3ccccc3CCc3ccccc32)cc1 | 4.2 | /
Cc1[nH]nc2c1CCCC2 | -3.3 | 0.7
C/C(N)=C(/C#N)C(=O)CSc1nc2cc(S(=O)(=O)N3CCCCC3)ccc2o1 | 1.0 | /
COc1cccc(C2CCN(C(=O)c3cccc4ccccc34)CC2)c1 | -1.8 | /
O=c1/c(=C\c2ccc(N3CCCC3)c(F)c2)sc2nc3ccccc3n12 | -7.7 | 1.7
CCOC(=O)N1CCC(NC(=O)c2ccc(Cn3c(=O)[nH]c4cc(OCC)c(OCC)cc4c3=O)cc2)CC1 | 0.4 | -1.2
COc1cccc(NS(=O)(=O)c2ccc3c(c2)CC(C)N3C(=O)C2CC2)c1 (stereo unspecified) | 0.9 | -0.8
O=C(CSc1nc(N2CCOCC2)nc(N2CCOCC2)n1)c1ccccc1 | 4.3 | -0.17
C/S(=N\S(=O)(=O)c1ccc(Cl)cc1)c1ccccc1 (stereo unspecified) | -5.0 | /
O=C(CSCc1cccc2ccccc12)Nc1ccc(C(F)(F)F)cc1 | 1.5 | /
CCOC(=O)c1c(N)sc(=S)c2c1CCC2 | 2.6 | /
COc1ccc(C2NC(=O)NC(C)=C2C(=O)c2ccccc2)cc1OC (stereo unspecified) | 1.4 | /
O=C(c1ccc2c(c1)N(Cc1ccccc1)C(=O)c1ccccc1S2=O)N1CCN(C(=O)c2ccco2)CC1 (stereo unspecified) | -1.4 | 0.099
CC(=O)OC(C(=O)NCc1ccc2c(c1)OCO2)c1ccccc1Cl (stereo unspecified) | -0.4 | 0.97
CC(=O)N1CCN(c2ccccc2NC(=S)NC(=O)CC(C)C)CC1 | -0.8 | -0.3
Cc1cccc(C)c1NC(=S)N1CCCC1=O | 2.4 | /
CCN(CC)S(=O)(=O)c1ccc2c(c1)CCCN2C(=O)OC | 0.8 | 0.8
COc1ccc(SCc2nsc(Sc3ccc(OC)cc3)n2)cc1 | 3.6 | /
O=C(Nc1ccccc1)c1ccco1 | -1.6 | -0.044
CCC(C)(C)n1nnnc1C(c1ccc(Cl)cc1)N1CCN(c2nc3ccccc3s2)CC1 (stereo unspecified) | 2.6 | 0.95

Sorted by molar mass (falling): part of the list above
SMILES | BasE inh | KSHV LANA nucl
Cc1csc(NC(=O)C(Cc2ccccc2)NS(=O)(=O)c2ccc(Br)s2)n1 (stereo unspecified) | -0.5 | -0.0055
COc1ccccc1NC(=O)C(NC(=O)c1ccccc1NC(=O)c1ccccc1)C(C)C (stereo unspecified) | 2.2 | /
CS(=O)(=O)c1ccc(NC(=O)CCCc2nc3ccccc3c(=O)[nH]2)cc1 | -0.1 | /
CC1Sc2ccc(S(=O)(=O)CCC(=O)N3CCCCC3)cc2NC1=O (stereo unspecified) | 0.3 | -1.7
Cc1cc(C)nc(SCC(=O)N2CCCC2c2cccs2)n1 (stereo unspecified) | 0.7 | /
Cc1[nH]nc2c1CCCC2 | -3.3 | 0.7

Other results
SMILES | BasE inh | KSHV LANA nucl
CCc1ccc2c(c1)c1nnc(SCC(=O)c3ccc(OC)cc3)nc1n2C | -0.6 | -0.12
CCOC(=O)c1ccccc1NC(=O)c1ccncc1 | 1.1 | -1
O=C(O)CCn1nc(-c2cccs2)oc1=O | 1.4 | /
C1=C(c2cc3ccccc3o2)SC2=NCCN12 | -1.5 | /
CCc1ccc(C2c3c(-c4ccccc4O)n[nH]c3C(=O)N2CCO)cc1 (stereo unspecified) | -0.3 | 0.95
Cc1ccc2nc(SCC(=O)N3CCc4ccccc43)nc(=O)n2c1 | 1.7 | -1.5
N#Cc1c(N(C(=O)/C=C/c2ccco2)C(=O)/C=C/c2ccco2)oc(-c2ccco2)c1-c1ccco1 | 6.4 | /
O=c1c(Oc2ccccc2)c(C(F)(F)F)oc2c(O)c(O)ccc12 | -0.9 | 0.74
CC(C)=C1C2C=CC1C1C(=O)N(c3ccccc3)C(=O)C21 (stereo unspecified) | 2.0 | 0.4
CCNC(=O)c1ccc(NS(C)(=O)=O)cc1 | 3.0 | -0.12
CCC(C)c1ccc(NC(=S)N2CCN(S(C)(=O)=O)CC2)cc1 (stereo unspecified) | -0.5 | 0.99
CC(C)c1ccc(N/C=C2/CCCCC2=O)cc1 | -0.7 | 0.77
CCC(C)(C)NS(=O)(=O)Cc1ccccc1 | -1.6 | 0.11
Cc1noc(C)c1COC(=O)CCC(=O)c1ccc(F)cc1 | 0.5 | /
CCNC(=O)CCSc1nc(C)cc(C)n1 | 2.2 | 0.86
CCCN(CCC)C(=O)c1noc2c1CC(C)CC2 (stereo unspecified) | 1.8 | /
CCC(=O)Nn1cnc2c(cnn2-c2ccccc2)c1=O | -0.4 | -2.2*
O=c1[nH]cc(-c2ccc(Br)cc2)n1Cc1ccccc1 | 2.3 | /
O=C(O)/C=C/c1csc(-c2ccc(F)cc2)n1 | 5.3 | /
Cc1ccc(NC(=O)c2cc(C)on2)cc1 | -1.6 | -0.88
CCCN1C(=N)C(c2nc3ccccc3s2)=C(O)C1c1ccccc1 (stereo unspecified) | 0.9 | /
CCOc1ccc(Nc2ncnc3c2cnn3-c2ccccc2)cc1 | -0.4 | 2.4
Cc1cc(=O)[nH]c(SCC(=O)N(c2ccccc2)c2ccccc2)n1 | 2.8 | 0.0065
CC(C)Nc1nc(Cl)nc(NNC(=O)C(C)Oc2ccccc2)n1 (stereo unspecified) | -0.4 | 0.31
O=C(Nc1cccnc1)c1ncoc1-c1ccc2ccccc2c1 | 17 | 0.45

The listing continues:
SMILES | BasE inh | KSHV LANA nucl
CC(C)(C)c1cc(CN2C(=O)c3ccccc3C2=O)cc(C(C)(C)C)c1O | -0.1 | /
CC(=O)N1CCN(C2=Nc3cccc4cccc2c34)CC1 | 14 | /
CC(C)Cn1c(=O)[nH]c2ccccc21 | -1.1 | 0.43
CC(C)(C)P(=Nc1ccc(Br)cc1)(N1CCOCC1)N1CCOCC1 | -0.4 | /
O=C(O)c1cccc(N=C2NC(=O)C(CO)(CO)S2)c1 | 3.2 | 0.38
Cc1noc(C)c1CSc1nc(C)c(C)n1C1CCCCC1 | 0.4 | /
CCOc1ccccc1-c1noc(-c2cccc(OC)c2)n1 | 9.5 | -1.6
COc1ccc(CCNS(=O)(=O)c2ccc(C)cc2)cc1OC | 1.6 | 2.1
O=C(NC(=O)N1CCOCC1)c1ccc(S(=O)(=O)N2CCOCC2)cc1 | -0.2 | /
CCOc1ccc(CNC(=O)C2CCCN2S(=O)(=O)c2ccc3c(c2)CCCC(=O)N3)cc1 (stereo unspecified) | 0.7 | /
Cc1cc(C)n(C(=O)CNC(=O)c2cccs2)n1 | 2.8 | /
C=CC(=O)NC1(CCC)CCCCC1 | 1.6 | -0.017
Cc1nn(-c2ccccc2)nc1C(=O)NC(=O)N1CC(C)OC(C)C1 (stereo unspecified) | 0.5 | /
O=C(N/N=C/c1ccc[nH]1)c1cccc(Cl)c1 | -2.8 | 0.7
O=C(O)CSC(=S)N1CCCC1 | -0.6 | -0.26

KSHV LANA nucl: what is marked active above.
canonical_smiles | KSHV LANA nucl
CCC(=O)Nn1cnc2c(cnn2-c2ccccc2)c1=O | -2.2*

Source: PubChem (ICCB-Longwood Screening Facility, Harvard Medical School)
